# Bioassay records deposited in PubChem BioAssay by several laboratories.
# Ecoli rRNA inh – reduced GFP signal of wild-type E. coli, primary screen, bacterial rRNA inhibitor project, GFP/RFP fluorescence, OD600, single point | E. coli WT GFP vs humanized-ribosome RFP mutants, 24 h; hits give low values; DMSO median 0, no signal -100 | GFP signal change (wild-type ribosome), % (test concentration not listed) | 350,000 compounds, 1.6% hits;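 active = significant combined selectivity score with lowered wild-type GFP, culture density cut under 30%, mutant RFP and density less affected; inactive = any of these conditions unmet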; note: one replicate is shown; some compounds called inactive have numbers as strong as hits
# HNF4A DNA FP – change in binding of human HNF4A to DNA, primary screen, biochemical, fluorescence polarization, FITC-DNA | 1 h | activity change, % at 10 µM | 360,000 compounds, 0.3% hits | Hepatocyte nuclear factor 4-alpha (Homo sapiens), P41235; in the data active = activity change above about 30%, passing the limit was not always enough;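 note: controls were the assay level and a saturating level of protein; the project sought stronger binding though the title names inhibitors; some compounds called inactive have numbers as strong as hits; positive values seem to mean higher polarization but the record does not say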
# FGF22 binding – binders of human FGF22 protein, primary screen, FGF22 synaptogenesis inhibitor project, biophysical, thermal shift, single point; calls only at 9.99 µM; 340,000 compounds, 1.5% hits; recombinant FGF22 thermal shift, SYPRO orange fluorescence; percent of sucrose octasulfate shift, DMSO zero;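 active = melting point raised past a set limit in the mean and every replicate; inconclusive = no clear call; three in four hits are not shown here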
# Target sequence (Q9HCT0 whole entry, looked up): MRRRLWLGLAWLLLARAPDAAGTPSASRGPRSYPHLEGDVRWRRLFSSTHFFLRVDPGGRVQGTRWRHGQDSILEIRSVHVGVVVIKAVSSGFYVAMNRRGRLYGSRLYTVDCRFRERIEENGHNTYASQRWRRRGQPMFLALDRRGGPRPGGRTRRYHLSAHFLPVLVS
# Ecoli growth – E. coli growth inhibition, primary screen, OD600. 330,000 compounds, 0.21% hits. Escherichia coli growth, 23 h; hits give low values. OD600 absorbance (no concentration beside the values);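 active = OD600 absorbance below the run mean of sample wells minus 3.6 SD, in any replicate, cut at about 0.56 in these data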;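 note: stock transfer was 300 nL into about 60 µL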
# UCH37 inh – inhibitors of human UCH37 deubiquitinase, primary screen, biochemical, Ub-AMC cleavage, fluorescence. Ubiquitin carboxyl-terminal hydrolase isozyme L5 (Homo sapiens), Q9Y5K5. purified proteasome/UCH37. 330,000 compounds, 0.33% hits. inhibition, % (no concentration beside the values). AID 588478, 2011;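 active = mean of two replicates above 20%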;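 note: 0% = compound-free wells with enzyme and 100% = wells lacking proteasome; stock transfer was 100 nL into about 20 µL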
# Target sequence (Q9Y5K5 whole entry, looked up): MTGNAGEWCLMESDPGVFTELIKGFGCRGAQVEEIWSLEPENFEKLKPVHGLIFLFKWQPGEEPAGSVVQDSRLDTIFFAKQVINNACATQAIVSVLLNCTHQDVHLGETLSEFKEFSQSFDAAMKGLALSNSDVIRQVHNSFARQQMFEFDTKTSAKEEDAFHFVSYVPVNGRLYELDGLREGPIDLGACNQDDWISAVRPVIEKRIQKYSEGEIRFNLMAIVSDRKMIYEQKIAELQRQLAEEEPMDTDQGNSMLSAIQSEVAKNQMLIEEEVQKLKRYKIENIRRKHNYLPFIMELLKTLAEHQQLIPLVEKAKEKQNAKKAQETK
#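 system = Proteasome-associated human UCH37 deubiquitinase | amount = 0.15 nM proteasome as dispensed | medium = pH 7.4 Tris-HCl (50 mM) with ovalbumin, ATP-MgCl2, DTT | incubation = 30 min preincubation with enzyme, 25 min cleavage at room temperature | detection = AMC fluorescence 355/460 nm | read-out basis = percent inhibition | controls = no-proteasome and no-compound wells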
# Beta2AR agonist – beta2AR agonists driving receptor internalization, primary screen, cell-based, FAP fluorogen, flow cytometry. Am2.2-beta2AR cells; reference of the scale not given here. response, % (concentration not given with the values). 340,000 compounds, 0.43% hits. AID 504454, 2011;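 active = response above a set limit, near 3 SD of response in nonfluorescent compounds, cut at about 42% in these data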;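 note: stock transfer was 100 nL into about 11 µL; a reference agonist was the positive control; negative values mostly stem from fluorescent compounds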
# Target sequence (P07550 whole entry, looked up): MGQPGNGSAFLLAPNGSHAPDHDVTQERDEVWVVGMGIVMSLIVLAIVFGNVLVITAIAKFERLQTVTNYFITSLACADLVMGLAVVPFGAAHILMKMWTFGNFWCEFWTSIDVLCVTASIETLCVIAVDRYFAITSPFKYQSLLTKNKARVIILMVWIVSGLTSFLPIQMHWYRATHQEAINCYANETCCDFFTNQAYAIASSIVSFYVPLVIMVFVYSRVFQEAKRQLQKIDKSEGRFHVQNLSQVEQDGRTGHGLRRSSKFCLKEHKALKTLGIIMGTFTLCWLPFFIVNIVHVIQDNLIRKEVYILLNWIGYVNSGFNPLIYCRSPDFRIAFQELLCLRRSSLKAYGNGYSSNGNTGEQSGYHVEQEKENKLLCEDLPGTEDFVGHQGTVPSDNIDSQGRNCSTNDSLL
# ALR H2O2 inh – inhibitors of human ALR sulfhydryl oxidase, primary screen, biochemical, H2O2 detection, HRP-luminol luminescence, single point; 290,000 compounds, 3.8% hits; FAD-linked sulfhydryl oxidase ALR (Homo sapiens), P55789; inhibition, % (concentration not given with the values); AID 485317, 2010; purified ALR, DTT oxidation;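 active = mean and each replicate at 75% or more; inconclusive = only one of the two met; inactive = neither met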;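 note: stock transfer was 7.5 nL into about 7.5 µL; 0% = neutral wells and 100% = wells with inactivated enzyme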
# Ecoli rRNA inh OD600 – further read-out of Ecoli rRNA inh, marked with its call; OD600 change, %; measured here: OD600 growth;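 optical density of the mix in the first replicate; 0 = DMSO median and -100 = no signal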
# Ecoli rRNA inh RFP – second read-out of Ecoli rRNA inh, no call of its own (marks repeat the call); RFP signal change, %; measured here: RFP humanized mutant strains;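 first replicate; 0 = DMSO median and -100 = no signal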
# An asterisk follows results filed as active; i = inactive; ? = inconclusive; · = no result given. Some of the compounds tested. The share of hits here may be higher or lower than overall.
SMILES,Ecoli rRNA inh,Ecoli rRNA inh OD600,Ecoli rRNA inh RFP,HNF4A DNA FP,FGF22 binding,Ecoli growth,UCH37 inh,Beta2AR agonist,ALR H2O2 inh
CCCc1cc(NC(=O)COC(=O)c2ccc(O)cc2O)n(-c2ccccc2)n1,-10,-6,0.8,-0.7,i,0.66,1.6,-7,11
O=C(Nc1ccccc1NC(=O)c1c(F)c(F)c(F)c(F)c1F)c1c(F)c(F)c(F)c(F)c1F,·,·,·,2.8,·,0.7,0.4,4,·
Cc1coc(NC(=O)CSc2nc(-c3ccncc3)cc(C(F)(F)F)c2C#N)n1,·,·,·,2.2,·,0.71,-31,-6,-3
COCCNC(=O)c1onc(CSc2ccc(C(C)C)cc2)c1C(=O)O,-24,-24,-1.3,-0.4,·,0.65,1.7,3,89*
COC(=O)CCC(=O)NC(=S)Nc1c(C)cccc1C,13,4,-0.7,1.9,i,0.71,0.4,7,-5
CCCS(=O)(=O)NC(=O)C1(C)CCCN(C(=O)c2cc(C)nn2C(C)(C)C)C1 (stereo not drawn),2,1,-2.0,2.5,i,·,·,·,·
Cc1ccc(OCC(=O)N2CCc3ccccc3C2)cc1,-6,-10,-1.9,0.7,i,0.69,4.2,5,-8
CCOc1cc(C2C3=C(CC(C)(C)CC3=O)N(CCOC)C3=C2C(=O)CC(C)(C)C3)ccc1OC,3,11,4.7,-4.5,i,0.63,-4.4,-7,-6
O=C(Cn1nnc(-c2cccc(C(F)(F)F)c2)n1)NNS(=O)(=O)c1cccc(C(F)(F)F)c1,-1,-6,1.7,-0.4,i,0.64,5.4,8,-12
O=C(OCC(O)C(O)COC(=O)c1ccccc1)c1ccccc1 (stereo not drawn),·,·,·,1.5,·,0.75,6.7,-10,1
FC(F)(F)c1nnc2ccc(Sc3ccccn3)nn12,-3,0,-0.3,0.1,i,0.7,3.5,12,-1
COc1ccc(C(=O)Nc2ccc(C3=NNC(=O)CC3C)cc2NC(=O)c2ccc(OC)cc2)cc1 (stereo not drawn),11,8,0.6,1.5,·,0.69,-0.3,2,1
CC(CN1CCCCC1)C(=O)NN (stereo not drawn),23,13,-1.2,-3.8,i,0.66,1.9,-4,2
COc1ccc(N2CCN(CC(O)c3c[nH]c4ccc(OC)cc34)CC2C)cc1 (stereo not drawn),·,·,·,-0.6,·,0.82,-5.1,10,100*
O=C(Cn1cnc2ccccc21)N/N=C/c1ccc([N+](=O)[O-])cc1,8,7,0.5,2.4,i,·,·,-7,-13
O=C1N=NC2=C1c1c3ccccc3c(O)n1CC2,3,6,4.4,3.8,i,0.68,13,-2,-28
CN(CC(=O)NCc1cccc(F)c1)C(=O)c1ccco1,·,·,·,1.7,·,0.67,0.0,-3,-8
CC(=O)Oc1ccc(N(C(C)=O)S(=O)(=O)c2ccc(C)cc2C)c2ccccc12,-27,-23,-6.8,-2.9,i,0.7,6.7,6,8
CCc1nc2c(OCCC3CCCCC3)cccn2c1N(C)C(=O)CC(C)C,-21,-37,10,1.0,i,·,·,·,·
COc1ccc(/C(C)=N/Nc2nc3ccccc3nc2C)cc1,28,12,4.0,-0.2,i,·,·,-11,15
N/N=C(\c1ccccc1)c1cc(Cl)ccc1N,-3,-2,-1.2,2.6,i,·,·,2,14
CC(C)n1cnc2c(NCc3ccccc3)cc(OCC3CCN(C)CC3)cc21,·,·,·,5.7,·,·,11,16,?
CCCNC(=O)C1(C)CCCN(Cc2csc3ccccc23)C1 (stereo not drawn),-10,-8,-2.3,-0.1,i,·,·,·,·
Cc1cc(C)cc(OCC(=O)Nc2nonc2NC(=O)COc2cc(C)cc(C)c2)c1,·,·,·,3.5,·,0.65,0.6,3,3
COC(=O)CSc1nc(SCc2ccccc2Cl)nc2c1CCCC2,·,·,·,3.1,·,0.74,-1.9,-3,-3
CC1=C(C(=O)OC2CCCCC2)C(c2ccc(O)cc2)NC(=O)N1 (stereo not drawn),-17,-20,-3.1,1.1,i,0.71,3.3,-1,17
COCc1cc(=O)[nH]c(SCC(=O)c2ccccc2)n1,-2,-3,-5.9,-0.7,i,0.68,3.4,1,3
O=c1cc(C(F)(F)F)[nH]c2c(OC(F)(F)F)cccc12,·,·,·,-6.6,i,0.65,-13,5,-2
CN1CCN(C(=O)CSc2nc3ccc(NC(=O)c4ccccc4F)cc3s2)CC1,-7,-9,-3.2,-2.1,i,0.68,-0.9,-6,-9
CC1CCCN(S(=O)(=O)c2cc(Cl)ccc2Cl)C1 (stereo not drawn),·,·,·,2.4,·,0.68,5.1,-11,-3
CC1CCN(C(=S)c2ccc(N(C)C)cc2)CC1,-3,-7,-0.1,-1.2,i,0.63,5.2,-7,99*
CCOC(=O)c1cnc2c(cnn2C)c1Oc1ccc(OC)cc1,-1,3,0.7,5.8,·,0.69,3.4,2,-1
CC(=O)c1cccc(NC(=O)Nc2c(C)nn(C)c2C)c1,·,·,·,-3.0,·,0.71,1.0,-3,·
CCOC(=O)c1c(N)sc2c1CCCC2=O,1,-1,-0.7,-1.0,i,0.67,3.9,-8,-1
C=CCn1c(O)c(C=Nc2ccc(Cc3ccncc3)cc2)c(=O)[nH]c1=S,·,·,·,2.2,·,0.67,3.6,-8,-4
CC(C)(C)NC(=O)N1CCCN(c2ccc(C(F)(F)F)cn2)CC1,-6,-10,3.3,-0.9,i,0.69,-0.9,-2,-1
O=C1CC(c2ccco2)Cc2nc(N3CCc4ccccc4C3)ncc21 (stereo not drawn),·,·,·,-1.7,·,0.71,2.7,8,1
CCN(CC(=O)Nc1cccc(F)c1)Cc1nc2ccccc2c(=O)[nH]1,10,11,4.8,6.0,i,0.71,1.5,-6,·
Cn1cnnc1SCC(=O)NC(=O)NCc1ccccc1,8,12,-2.7,-1.4,i,0.63,1.7,5,·
COc1ccccc1NC(=O)c1c(C)oc2c1CCCC2,·,·,·,-2.0,·,0.7,4.2,-9,4

# Of the compounds above, these have two or more sulfur atoms.
SMILES,Ecoli rRNA inh,Ecoli rRNA inh OD600,Ecoli rRNA inh RFP,HNF4A DNA FP,FGF22 binding,Ecoli growth,UCH37 inh,Beta2AR agonist,ALR H2O2 inh
COC(=O)CSc1nc(SCc2ccccc2Cl)nc2c1CCCC2,·,·,·,3.1,·,0.74,-1.9,-3,-3
CN1CCN(C(=O)CSc2nc3ccc(NC(=O)c4ccccc4F)cc3s2)CC1,-7,-9,-3.2,-2.1,i,0.68,-0.9,-6,-9

# (further entries)
SMILES,Ecoli rRNA inh,Ecoli rRNA inh OD600,Ecoli rRNA inh RFP,HNF4A DNA FP,FGF22 binding,Ecoli growth,UCH37 inh,Beta2AR agonist,ALR H2O2 inh
C=CCCC1(C)C(=O)N(c2ccccc2)c2ccccc21 (stereo not drawn),·,·,·,5.5,·,0.7,-0.2,4,-5
CCOC(=O)c1cc(C)[nH]c(=O)c1C#N,1,10,-0.3,-1.1,i,·,·,-4,-1
CC(/C=N/NC(=O)c1cc(C(C)C)[nH]n1)=C\c1ccccc1,-10,-7,-3.2,0.7,i,·,·,12,-5
Cc1ccc(/C=C/C(=O)OC(C)C(=O)Nc2ccc(Cl)cn2)o1 (stereo not drawn),·,·,·,5.6,·,0.65,-1.5,1,40
CCc1ccccc1OCC(=O)Nc1cccc(S(=O)(=O)NC2=NCCC2)c1,-16,-23,-2.6,-1.3,i,0.68,1.0,6,·
O=C1Nc2ccc([N+](=O)[O-])cc2OC1CCN1CCCC1 (stereo not drawn),8,14,3.2,-0.3,i,0.64,11,1,-7
COC(=O)c1cc2c(=O)c3ccccc3oc2nc1C,3,7,-0.8,4.4,i,0.7,3.7,8,15
CCOC(=O)C1(C)CCN1C(=O)c1ccc2ccccc2c1 (stereo not drawn),-1,-8,-3.2,3.4,i,·,·,·,·
CC(=O)Nc1cccc(S(C)(=O)=O)c1,-1,-3,-9.8,1.4,i,0.68,1.8,6,-1
CCC(CC)c1nnc(NS(=O)(=O)Cc2ccccc2)s1,·,·,·,-4.3,·,0.77,0.9,-5,-3
OC[C@@H]1CN(Cc2ccc(-c3ccccc3)cc2)C[C@H](n2cnc3c(NCc4ccc(F)cc4)ncnc32)O1,2,1,1.1,0.4,i,·,·,·,·
Cc1csc(SCc2ccc(C(=O)O)cc2)n1,·,·,·,3.7,·,0.71,0.5,2,-11
COc1ccc(NC(=O)CN(C)CC(=O)NCC2CCCCC2)cc1,-3,-4,-0.8,1.0,i,0.7,-1.1,-8,·
COc1ccccc1NC(=O)COC(=O)Cc1cccs1,11,5,4.1,2.4,i,0.67,-4.6,1,40
Cc1ccc(NC(=O)Cn2cc(S(=O)(=O)c3ccc(F)cc3)c(=O)c3cc(F)ccc32)cc1,7,11,-0.5,-0.4,i,0.74,-2.0,9,-10
Cc1ccc(CC(=O)NCCS(=O)c2ccc(C)cc2)cc1 (stereo not drawn),5,8,-0.7,-2.8,i,0.7,3.2,7,-2
CCC/C(=N\NC(=O)c1ccccc1C)c1ccccc1,·,·,·,-0.8,i,·,·,-8,-8
Cc1cc2c(SCC(=O)Nc3cccc(O)c3)ncnc2s1,·,·,·,-20,i,·,·,-63,·
O=C(CCN1CCCCO1)N1CCCC(N2CCN(c3ccc(F)cc3)CC2)C1 (stereo not drawn),3,5,-1.2,7.5,i,0.67,2.5,15,97*
CN(C)C=Nc1nonc1N,·,·,·,-1.5,·,0.69,-1.9,-6,-1
CCOC(=O)N1CCN(C(=O)c2c[nH]c3ccc(S(=O)(=O)N(C)c4cccc(C)c4)cc3c2=O)CC1,-1,0,-1.3,-1.5,i,0.71,-8.8,-2,-1
O=C(Nc1ccc(F)cc1)c1cccc2c1C(=O)N(Cc1ccccn1)C2,·,·,·,4.2,·,0.65,1.7,4,-4
CCOC(=O)CN(c1sc(C)c(C)c1C(=O)OCC)S(=O)(=O)c1ccc(C)cc1,-10,-19,0.5,1.4,i,·,·,·,·
C[C@H](NC(=O)c1ccco1)C(=O)Nc1nc(-c2ccccn2)cs1,6,-2,6.3,-1.6,i,0.68,0.6,-9,·
c1ccc2nc(-c3ccc4c(c3)OCO4)ccc2c1,-5,3,-5.2,2.0,i,0.74,-41,-10,27
Cc1cc(C(C)(C)C)cc(S(=O)(=O)NCC(=O)O)c1C,·,·,·,0.8,·,0.72,-1.6,0,4
COC(=O)c1ccc(C(=O)Nc2ccc(N)cc2N)cc1,·,·,·,5.8,·,0.75,-6.1,-2,92*
CCOc1ccccc1C1c2[nH]c3ccccc3c2C[C@H]2C(=O)N(C3CC3)CC(=O)N12 (stereo partly drawn),-8,-4,1.6,1.7,i,0.68,6.9,9,2
Cc1cc(NC(=O)c2cnn3c(C(F)F)cc(-c4ccccc4)nc23)no1,·,·,·,-2.9,·,0.73,2.9,-11,-3
Cc1ccc(NC(=S)NNC(=O)c2ccccc2OC(F)F)cc1,·,·,·,-1.1,·,0.68,1.6,-6,·
